# B2AR ag = beta2AR agonists driving receptor internalization, primary screen, cell-based, FAP fluorogen, flow cytometry. Am2.2-beta2AR cells; reference of the scale not given here. response, % (concentration not given with the values). hit rate 0.43% among 340,000;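 active = response above a set limit, near 3 SD of response in nonfluorescent compounds, cut at about 42% in these data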;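 also: stock transfer was 100 nL into about 11 µL; a reference agonist was the positive control; negative values mostly stem from fluorescent compounds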
# Target sequence (P07550 whole entry, looked up): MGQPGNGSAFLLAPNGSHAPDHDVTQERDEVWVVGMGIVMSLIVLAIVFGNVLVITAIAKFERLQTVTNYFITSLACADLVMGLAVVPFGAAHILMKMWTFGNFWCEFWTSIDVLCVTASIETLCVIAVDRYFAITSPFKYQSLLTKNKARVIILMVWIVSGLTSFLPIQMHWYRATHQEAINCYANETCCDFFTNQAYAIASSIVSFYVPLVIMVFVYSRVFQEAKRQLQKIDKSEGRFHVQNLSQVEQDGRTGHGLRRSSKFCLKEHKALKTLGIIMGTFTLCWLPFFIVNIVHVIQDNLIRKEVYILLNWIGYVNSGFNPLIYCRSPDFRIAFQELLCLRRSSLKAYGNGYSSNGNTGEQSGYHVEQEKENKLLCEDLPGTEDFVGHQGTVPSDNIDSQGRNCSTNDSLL
# ALR inh = inhibitors of human ALR sulfhydryl oxidase, primary screen, biochemical, H2O2 detection, HRP-luminol luminescence, single point; FAD-linked sulfhydryl oxidase ALR (Homo sapiens), P55789; purified ALR, DTT oxidation; inhibition, % (test concentration not listed); hit rate 3.8% among 290,000;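 active = mean and each replicate at 75% or more; inconclusive = only one of the two met; inactive = neither met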;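 also: stock transfer was 7.5 nL into about 7.5 µL; 0% = neutral wells and 100% = wells with inactivated enzyme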
# Target sequence (P55789 whole entry, looked up): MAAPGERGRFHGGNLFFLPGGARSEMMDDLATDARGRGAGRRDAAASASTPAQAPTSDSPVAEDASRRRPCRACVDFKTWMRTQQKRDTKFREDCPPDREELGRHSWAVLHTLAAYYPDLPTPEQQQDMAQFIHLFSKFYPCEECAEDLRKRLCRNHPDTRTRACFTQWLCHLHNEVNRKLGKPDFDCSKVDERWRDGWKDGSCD
# T cruzi inh = inhibitors of intracellular T. cruzi growth, primary screen, luminescence, NIH3T3 host cells; T. cruzi beta-gal in NIH3T3, 90 h; inhibition, % (concentration not given with the values); hit rate 1.4% among 300,000;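 active = mean inhibition across valid replicates above about 55%, limit read from the data; inconclusive = mean below that limit but half or more replicates reach it; inactive = mean below it, under half of replicates reach it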;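 also: signal also drops with host cell toxicity which is not excluded here; 0% = plate median of DMSO wells and 100% = zero luminescence signal; higher percent means less beta-gal luminescence so fewer parasites; stock transfer was 50 nL into about 50 µL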
# Beta apoptosis = inhibitors of cytokine-induced beta cell apoptosis, primary screen, luminescence; INS-1E cytokine-induced death, ATP luminescence, 48 h; percent of positive-control rescue, neutral wells zero; protection from apoptosis, % (concentration not given with the values); hit rate 0.8% among 300,000; AID 435005, 2010;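 active = all replicates at 75% or more, or half of them and the mean; inconclusive = half reach 75% but not the mean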;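 also: 0% = cytokine-treated negative control wells and 100% = positive control rescue; higher means more ATP so stronger rescue from cytokine killing; wells of about 40 µL received 100 nL stock; the first replicate is given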
# Ecoli rRNA inh = reduced GFP signal of wild-type E. coli, primary screen, bacterial rRNA inhibitor project, GFP/RFP fluorescence, OD600, single point; GFP signal change (wild-type ribosome), % (no concentration beside the values); AID 720706, 2013; E. coli WT GFP vs humanized-ribosome RFP mutants, 24 h; active compounds read low; DMSO median 0, no signal -100; hit rate 1.6% among 350,000;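 active = significant combined selectivity score with lowered wild-type GFP, culture density cut under 30%, mutant RFP and density less affected; inactive = any of these conditions unmet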; also: one replicate is shown; some compounds called inactive have numbers as strong as hits
# LANA-H2B inh = blockers of LANA interaction with H2A/H2B – biochemical, FP readout, HTS, primary screen; Protein LANA1 (Human herpesvirus 8 type P (isolate GK18)), Q9QR71; cell-free LANA-H2A/H2B peptide, fluorescence polarization; inhibition, % (test concentration not listed); hit rate 0.6% among 320,000; AID 2629, 2010; in the data active = inhibition mostly above about 10%, no sharp cut-off; inactive = mostly below about 6.7%;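 also: stock transfer was 7.5 nL into about 10 µL; 0% = median of vehicle wells and 100% = median of positive control wells; one replicate is shown; the record names a cut of 25% in any replicate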
# A1 inh = caspase 3/7 activation in MEF A1-2A-BIM cells, primary screen, A1 inhibitor project, cell-based, luminescence, HTS. Caspase-Glo 3/7 luminescence, 3 h; percent of clofoctol response, vehicle zero. hit rate 0.066% among 330,000. caspase activation, % (no concentration beside the values);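 active = over half of replicate activation scores above 10%, or exactly half above 10 with the replicate mean above 10; inconclusive = replicate mean below 10 yet half the replicates above 10; inactive = over half of replicates below 10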;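 also: wells of about 30 µL received 50 nL stock; many hits fall short of the cut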
# Calb FLC = C. albicans growth inhibition with fluconazole, primary screen, CaCi-2 strain, Alamar Blue fluorescence | C. albicans CaCi-2 (fluconazole-resistant clinical isolate) + fluconazole, 48 h | growth inhibition, % (test concentration not listed) | hit rate 0.57% among 300,000 | AID 1979, 2009;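 active = most replicates above 75%; inconclusive = exactly half above 75%; inactive = most below 75%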;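 also: all wells also contain fluconazole at 8 µg/ml as a sub-toxic cotreatment; 0% = median of DMSO wells and 100% = median of geldanamycin control wells; wells of about 8 µL received 7.5 nL stock; the first replicate is given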
# Ecoli rRNA inh OD600 = further read-out of Ecoli rRNA inh, marked with its call; OD600 change, %; measured here: OD600 growth;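 optical density of the mix in the first replicate; 0 = DMSO median and -100 = no signal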
# Ecoli rRNA inh RFP = further read-out of Ecoli rRNA inh, marked with its call; RFP signal change, %; measured here: RFP humanized mutant strains;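 first replicate; 0 = DMSO median and -100 = no signal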
# An asterisk follows results filed as active; ? = inconclusive; . = not tested or not shown. An excerpt, so the mix of outcomes need not match the whole.
cpd	SMILES	B2AR ag	ALR inh	T cruzi inh	Beta apoptosis	Ecoli rRNA inh
1	COc1ccc(C(Nc2cc(C)ccn2)c2ccc3ccc(C)nc3c2O)cc1 (stereo unspecified)	4.1	9.7	59.0*	-27.8	3.2
2	O=C(CCC(=O)Nc1ccc(F)cc1)N/N=C/c1c[nH]c2ccccc12	3.4	.	-15.8	-3.8	3.8
3	Cc1ccccc1OCC(=O)NCCCNC(=O)c1ccco1	-0.8	-19.3	-2.7	.	-2.8
4	O=C(NN1CCOCC1)c1ccc(Cl)cc1	1.6	8.0	-10.1	-4.3	.
5	CN(C(=S)NC(=O)c1ccccc1)C1CCCCC1	4.9	4.3	9.7	-1.8	-3.3
6	CCOC(=O)c1c(N2C(=O)C3CC(C)=C(C)CC3C2=O)sc(C)c1C (stereo unspecified)	-5.4	-0.2	26.1	1.4	.
7	O=C1C2C3C=CC(C4CC34)C2C(=O)N1CCCCN1CCN(c2ccc(F)cc2)CC1 (stereo unspecified)	-2.2	21.7	36.0	.	-4.0
8	COc1cc(OC)c(NC(=O)N2CCOCC2)cc1Cl	-2.4	-24.2	-6.7	3.7	3.6

cpd	Ecoli rRNA inh OD600	Ecoli rRNA inh RFP	LANA-H2B inh	A1 inh	Calb FLC
1	-1.2	7.0	2.7	-0.1	-1.1
2	2.4	2.8	2.8	0.9	-8.5
3	-11.2	1.5	-5.5	0.6	0.4
4	.	.	-1.5	-0.1	17.5
5	-8.9	0.7	4.3	-0.3	2.5
6	.	.	2.3	1.2	?
7	-17.9	3.3	3.3	0.6	11.8
8	-0.5	-0.1	-0.4	1.9	0.9

# Continuation.
cpd	SMILES	B2AR ag	ALR inh	T cruzi inh	Beta apoptosis	Ecoli rRNA inh
9	C#CCOCCOCCOCCNc1nc(N2CCN(C(=O)Cn3cc(CC(C)O)nn3)CC2)nc(N2CCN(C(=O)[C@H](C)n3cc(CCCN=C(N)N)nn3)CC2)n1 (stereo partly specified)	.	.	-8.8	-7.3	.
10	COc1ccc2cnnc(SCC(=O)Nc3ccc(C(=O)O)cc3)c2c1OC	2.0	98.8*	-14.9	0.1	.
11	CCOc1ccc(NC2c3ccccc3C(=O)N2Cc2ccc3c(c2)OCO3)cc1 (stereo unspecified)	7.9	.	10.5	12.4	-1.8
12	O=C(NCc1ccco1)C1CCCN(S(=O)(=O)c2cccc3nonc23)C1 (stereo unspecified)	.	7.4	7.1	-8.1	.
13	CC(=Nc1ccc(Br)cc1)c1sc2ccccc2c1O	8.2	-10.3	60.3*	3.0	7.5
14	O=C(O)CSc1nnc(-c2ccc(S(=O)(=O)N3CCCC3)cc2)n1Cc1ccco1	-0.2	2.3	-2.4	-7.2	.
15	CC(Sc1ccccc1)C(=O)NCCc1ccccc1 (stereo unspecified)	-5.2	1.0	-2.1	-5.3	1.0
16	Cc1cc(C(=O)N2CCN(S(C)(=O)=O)CC2)sc1-c1ccccc1	-2.7	-4.9	-7.0	-7.7	.

cpd	Ecoli rRNA inh OD600	Ecoli rRNA inh RFP	LANA-H2B inh	A1 inh	Calb FLC
9	.	.	0.2	-0.8	-1.0
10	.	.	-0.5	0.6	-5.4
11	-13.9	2.6	-6.0	0.2	6.5
12	.	.	-2.8	-1.1	2.1
13	-25.4	59.9	1.7	-3.8	-9.0
14	.	.	2.0	0.6	-16.1
15	0.5	-2.7	-6.2	0.2	0.8
16	.	.	-3.2	1.5	-0.9

# Continuation:
cpd	SMILES	B2AR ag	ALR inh	T cruzi inh	Beta apoptosis	Ecoli rRNA inh
17	Cc1cc(N/C(=N\S(=O)(=O)c2ccc(Cl)cc2)c2ccc(F)cc2)no1	-3.6	31.6	19.3	-4.4	.
18	Cc1ccc(C)c(Oc2cc(F)nc(N)n2)c1	-7.7	4.3	-9.2	-13.2	0.2
19	O=C(Nc1nc(-c2cccs2)c(-c2ccccc2)s1)c1ccco1	10.2	-7.4	0.7	-2.5	.
20	O=C(Nc1cc(-c2nc3ncccc3o2)ccc1Cl)c1ccc([N+](=O)[O-])o1	11.8	.	9.0	-5.4	2.4
21	CCOc1cccc(OCCCCN2CCOCC2)c1	2.4	-7.8	-2.5	-7.9	.
22	Cc1ccc(COc2ccc(C(=O)NN)cc2)cc1	-9.1	.	3.5	-2.2	11.3
23	COc1ccc(CC(=O)NCc2ccccn2)cc1OC	4.6	-12.1	-13.9	-2.2	.
24	O=C(COc1ccc2c3c(c(=O)oc2c1)CCCC3)N1CCN(c2ccc(F)cc2)CC1	-18.9	-5.2	12.7	1.5	6.1
25	O=C(NCC(c1cccnc1)N1CCN(c2ccccc2)CC1)OCc1ccccc1 (stereo unspecified)	1.2	76.5*	54.2	3.0	.
26	CCCNC(=O)C1CCN(S(=O)(=O)c2ccc3[nH]c(=O)ccc3c2)CC1	-3.4	-3.5	-1.7	1.3	5.3

cpd	Ecoli rRNA inh OD600	Ecoli rRNA inh RFP	LANA-H2B inh	A1 inh	Calb FLC
17	.	.	1.0	-0.9	19.6
18	7.0	-8.0	-0.5	0.6	-7.8
19	.	.	5.5	-1.8	1.0
20	9.0	-1.4	5.1	0.2	-4.5
21	.	.	2.6	0.1	-2.4
22	17.5	3.1	-0.2	-0.4	10.4
23	.	.	1.2	0.3	-7.5
24	6.5	-3.1	2.6	-0.1	0.5
25	.	.	4.3	-0.8	-25.7
26	4.3	0.1	20.2*	0.0	-4.6

# Three records picked at random from the list so far, as already listed:
cpd	SMILES	B2AR ag	ALR inh	T cruzi inh	Beta apoptosis	Ecoli rRNA inh
1	COc1ccc(C(Nc2cc(C)ccn2)c2ccc3ccc(C)nc3c2O)cc1 (stereo unspecified)	4.1	9.7	59.0*	-27.8	3.2
3	Cc1ccccc1OCC(=O)NCCCNC(=O)c1ccco1	-0.8	-19.3	-2.7	.	-2.8
14	O=C(O)CSc1nnc(-c2ccc(S(=O)(=O)N3CCCC3)cc2)n1Cc1ccco1	-0.2	2.3	-2.4	-7.2	.

cpd	Ecoli rRNA inh OD600	Ecoli rRNA inh RFP	LANA-H2B inh	A1 inh	Calb FLC
1	-1.2	7.0	2.7	-0.1	-1.1
3	-11.2	1.5	-5.5	0.6	0.4
14	.	.	2.0	0.6	-16.1

# Profiles as entered above. Order of values: B2AR ag	ALR inh	T cruzi inh	Beta apoptosis	Ecoli rRNA inh	Ecoli rRNA inh OD600	Ecoli rRNA inh RFP	LANA-H2B inh	A1 inh	Calb FLC
# `CCOC(=O)c1c(N2C(=O)C3CC(C)=C(C)CC3C2=O)sc(C)c1C` (stereo unspecified) across the screens: -5.4	-0.2	26.1	1.4	.	.	.	2.3	1.2	?
# `O=C(Nc1nc(-c2cccs2)c(-c2ccccc2)s1)c1ccco1` across the screens: 10.2	-7.4	0.7	-2.5	.	.	.	5.5	-1.8	1.0
# `O=C(NCC(c1cccnc1)N1CCN(c2ccccc2)CC1)OCc1ccccc1` (stereo unspecified) across the screens: 1.2	76.5*	54.2	3.0	.	.	.	4.3	-0.8	-25.7
# `O=C(O)CSc1nnc(-c2ccc(S(=O)(=O)N3CCCC3)cc2)n1Cc1ccco1` across the screens: -0.2	2.3	-2.4	-7.2	.	.	.	2.0	0.6	-16.1
# `O=C(NN1CCOCC1)c1ccc(Cl)cc1` across the screens: 1.6	8.0	-10.1	-4.3	.	.	.	-1.5	-0.1	17.5

# Source: PubChem BioAssay
